# Compound activity: PubChem BioAssay, Broad Institute
# AF4-AF9 inh – inhibitors of AF4 peptide binding to AF9, primary screen, biochemical, AlphaScreen, biotin-AF4 peptide, FLAG-AF9, single point; Protein AF-9 (Homo sapiens), P42568; inhibition, % at 10 µM; 0.47% of 350,000 active;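 active = every replicate reaching a set inhibition limit, whatever the replicate mean, cut at about 25% in these data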;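 note: 0% = plate neutral control median and 100% = total signal loss; the record names both 10 and 1 µM as test concentration; the first replicate is given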
# Target sequence (P42568 whole entry, looked up): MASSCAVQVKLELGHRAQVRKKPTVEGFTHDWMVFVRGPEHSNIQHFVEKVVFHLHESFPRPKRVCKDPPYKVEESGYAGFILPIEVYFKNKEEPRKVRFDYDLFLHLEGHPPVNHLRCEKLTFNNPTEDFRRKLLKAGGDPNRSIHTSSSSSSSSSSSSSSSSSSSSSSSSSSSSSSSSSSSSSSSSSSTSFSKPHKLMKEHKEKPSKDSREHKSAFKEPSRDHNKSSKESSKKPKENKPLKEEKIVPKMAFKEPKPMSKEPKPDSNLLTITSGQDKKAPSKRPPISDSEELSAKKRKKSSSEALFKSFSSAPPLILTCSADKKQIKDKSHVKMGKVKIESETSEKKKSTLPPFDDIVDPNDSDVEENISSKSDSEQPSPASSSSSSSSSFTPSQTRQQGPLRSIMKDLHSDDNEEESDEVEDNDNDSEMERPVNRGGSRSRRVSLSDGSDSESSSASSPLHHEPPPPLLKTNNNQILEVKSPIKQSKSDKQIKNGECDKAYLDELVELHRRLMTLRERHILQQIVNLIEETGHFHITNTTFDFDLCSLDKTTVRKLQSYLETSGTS
# The depositor's hits bear a star.
molecule,AF4-AF9 inh
CCCCN1C(=O)C(CC(=O)NCc2ccco2)CC(C(=O)N2CCCCCC2)=C1C (configuration not stated),-5.4
COc1ccc(OC)c(CN2CCN(C(=O)c3ccc(S(=O)(=O)N4CCCCCC4)cc3)CC2)c1,6.4
C[C@H]1CN([C@@H](C)CO)C(=O)Cc2cc(NC(=O)CCN3CCOCC3)ccc2O[C@H]1CN(C)C(=O)Nc1cccc2ccccc12,3.2
CN(C)CCCOc1ccc(-c2ccc3nccn3c2)cn1,2.4
O=c1oc(-c2ccccc2)cc2ccccc12,7.2
Cc1ccc2nc(-c3ccccc3)c(Cc3cccc(Cl)c3)n2c1,0.7
Cc1cn([C@H]2C[C@H](O)[C@@H](CCC(=O)NCc3cccs3)O2)c(=O)[nH]c1=O,-0.5
O=C(COC(=O)c1cccc(OC(F)F)c1)Nc1cc(S(=O)(=O)N2CCCC2)ccc1Cl,-5.6
C[C@@H]1CN([C@H](C)CO)C(=O)c2cc(Br)cnc2O[C@@H]1CN(C)Cc1ccccn1,-6.3
COCCNC(=O)C1CCCN(C(=O)c2sccc2C)CC1 (configuration not stated),1.7
COc1ccc(S(=O)(=O)N(C)C[C@H]2Oc3ncc(/C=C/c4ccccc4)cc3C(=O)N([C@H](C)CO)C[C@@H]2C)cc1,7.0
COC(=O)[C@H](Cc1ccccc1)N1CC2=C[C@H](C3CC3)n3c(=O)n(C)c(=O)n3[C@@H]2[C@H]1[C@H](O)Cc1ccccc1,-1.1
O=C(C[C@@H]1C=C[C@H](NC(=O)Nc2cc(F)ccc2F)[C@H](CO)O1)Nc1ccccc1,2.0
COc1ccc(CN2CCC2(C)C(=O)Nc2cnc3ccccc3c2)c2ccccc12 (configuration not stated),2.4
O=C(C1CCC1)N1CCCCN2[C@H](CO)[C@@H](c3ccc(C#CC4CCCC4)cc3)[C@@H]2C1,-2.3
Cc1cccc(C)c1C(O)c1ncc(-c2ccccc2F)[nH]1 (configuration not stated),-6.9
COCCOC(=O)N1C(=O)[C@@]2(c3cc(C#CCCO)ccc31)[C@H](c1ccccc1OCCO)N1[C@H](c3ccccc3)[C@H](c3ccccc3)OC(=O)[C@H]1[C@@H]2C(=O)N1CCc2cc(OC)c(OC)cc2C1,0.0
O=C1C2C=C(I)[C@H](C[C@@H]2OCCCCCCO)[C@@]12CO2,-4.2
O=C1O[C@H](c2ccccc2)[C@H](c2ccccc2)N2[C@H]1[C@@H](C(=O)NC[C@H](O)c1ccccc1)[C@]1(C(=O)Nc3ccc(C#CC4=CCCCC4)cc31)[C@H]2c1ccc(OCCO)cc1,-16
Nc1cccc(OCCCCCOc2cccc(N)c2)c1,-1.4
CC(C)NC(=O)N[C@H]1C[C@@H]2O[C@@H](CO)CC[C@@H]2O[C@@H]1CCc1ccc(-c2ccccc2F)cc1,33*
CO[C@@H]1CN(C)C(=O)c2ccc(NC(=O)c3cc(C)on3)cc2OC[C@@H](C)N(S(=O)(=O)c2cccc(Cl)c2)C[C@H]1C,3.2
CC(C)C[C@H]1CNC(=O)C(=O)N1CC1CCN(CC2CCC(C(C)(C)C)CC2)CC1 (some centres not stated),-5.1
COc1ccc(C#Cc2ccc3c(c2)[C@]2(C(=O)N3)[C@H](c3ccc(O)cc3)N3[C@H](c4ccccc4)[C@H](c4ccccc4)OC(=O)[C@H]3[C@@H]2C(=O)NC[C@H](O)c2ccccc2)cc1,-3.2
COC(=O)C(CC#Cc1ccc2c(c1)[C@]1(C(=O)N2)[C@H](c2ccccc2OCCO)N2[C@H](c3ccccc3)[C@H](c3ccccc3)OC(=O)[C@H]2[C@@H]1C(N)=O)C(=O)OC,0.7
CN(C(=O)CSc1ncnc2c(-c3cccs3)nsc12)C1CCCCC1,0.8
CC(=O)n1cc([C@@H]2C=C(C(=O)N3CCN(Cc4ccccc4)CC3)O[C@H](OCCCCO)C2)c2ccccc21,2.0
C[C@H]1CN([C@@H](C)CO)C(=O)c2cccc(NC(=O)Nc3ccccc3)c2O[C@@H]1CN(C)C(=O)Nc1ccc2c(c1)OCO2,3.2
COCc1cn([C@@H]2C[C@@H]3O[C@@H](CO)CC[C@@H]3O[C@@H]2CCc2ccc(-c3ccc(OC)cc3)cc2)nn1,4.7
C=CCN1C(=O)N[C@@H]2c3ccccc3O[C@@]1(COCc1ccc(OC)cc1)[C@@H]2CO,-2.5
CCCN(C)C[C@H]1Oc2ncc(-c3cccc(C(=O)N(C)C)c3)cc2C(=O)N([C@@H](C)CO)C[C@@H]1C,-1.9
CN1c2ccc(C3=CCCCC3)cc2[C@H]2[C@H](CCN2C(=O)NC2CCCC2)[C@@H]1CO,19
O=C(C[C@H]1C=C[C@H](NC(=O)Nc2cc(F)ccc2F)[C@H](CO)O1)Nc1ccccc1,-1.0
COC(=O)c1ccc([C@H]2C=C(C(=O)N3CCN(Cc4ccc5c(c4)OCO5)CC3)O[C@@H](OCc3ccc(CO)cc3)C2)cc1,-0.1
O=C(Nc1ccc(F)cc1)N1CCCCN2[C@H](CO)[C@@H](c3ccc(-c4ccccc4F)cc3)[C@@H]2C1,-5.8
O=C1O[C@@H](c2ccccc2)[C@@H](c2ccccc2)N2[C@@H](c3ccccc3OCCO)[C@]3(C(=O)Nc4ccc(C#CC5=CCCCC5)cc43)[C@@H](C(=O)N3CCN(c4ncccn4)CC3)[C@H]12,-0.4
O=C(NC[C@H]1CC[C@@H]2[C@@H](CN2S(=O)(=O)c2ccccc2[N+](=O)[O-])O1)c1cccnc1,-3.0
COc1ccc(-c2ccc3c(c2)[C@H]2[C@H](CCN2C(=O)Cc2cccnc2)[C@H](CO)N3C)cc1,14
COc1ccc(-c2nc3ccc(Cl)cn3c2Cc2ccccc2)cc1OC,1.5
OC[C@@H]1[C@H]2c3ccccc3OC1(CO)N=C1SCc3ccccc3CN12,3.3

# Reformatted with each value named: entries from further up
O=C1O[C@H](c2ccccc2)[C@H](c2ccccc2)N2[C@H]1[C@@H](C(=O)NC[C@H](O)c1ccccc1)[C@]1(C(=O)Nc3ccc(C#CC4=CCCCC4)cc31)[C@H]2c1ccc(OCCO)cc1
  AF4-AF9 inh: -16

Nc1cccc(OCCCCCOc2cccc(N)c2)c1
  AF4-AF9 inh: -1.4

CC(C)NC(=O)N[C@H]1C[C@@H]2O[C@@H](CO)CC[C@@H]2O[C@@H]1CCc1ccc(-c2ccccc2F)cc1
  AF4-AF9 inh: 33*

CO[C@@H]1CN(C)C(=O)c2ccc(NC(=O)c3cc(C)on3)cc2OC[C@@H](C)N(S(=O)(=O)c2cccc(Cl)c2)C[C@H]1C
  AF4-AF9 inh: 3.2

# (listing goes on)
molecule,AF4-AF9 inh
Cc1cc(C(=O)N2CCC2(C)C(=O)Nc2cccc3c2CCCC3)nn1C (configuration not stated),-0.3
Cc1ccc(-c2ccc([C@H]3[C@H](CO)N4CCCCN(S(=O)(=O)c5cccc(C)c5)C[C@@H]34)cc2)cc1,0.3
O=C(Nc1ccc([N+](=O)[O-])cc1)OC1CCS(=O)(=O)C1 (configuration not stated),4.2
COc1ccc(S(=O)(=O)N2CCCCN3[C@@H](CO)[C@@H](c4ccc(C5=CCCCC5)cc4)[C@@H]3C2)cc1,2.8
OC[C@@H]1CC[C@@H]2O[C@H](CCc3ccc(-c4ccccc4)cc3)[C@@H](n3cc(C4CC4)nn3)C[C@@H]2O1,-3.7
O=C(NCc1ccccc1)[C@]1(Cc2ccccc2)N=C(c2ccc(OCCCO)cc2)O[C@@H]1c1ccccc1,3.9
CS(=O)(=O)Nc1ccc(F)cc1,-1.2
CCOC(=O)C(CC)c1cc2n(c(=O)c1C#N)CCC21OCCO1 (configuration not stated),0.1
O=C(C1CCCCC1)N1C[C@@H]2O[C@H](CNS(=O)(=O)c3ccccc3F)CC[C@@H]21,-3.6
COC(=O)c1c(NC(=O)c2ccccc2C(=O)O)sc2c1CCCC2,-5.6
O=C(NC[C@H]1CC[C@@H]2[C@@H](CN2S(=O)(=O)c2ccccc2[N+](=O)[O-])O1)C1CC1,-1.7
Cn1c(NCCN2CCCC2)nc2cc(-c3ccsc3)sc2c1=O,3.0
CCOC(=O)[C@]12CCC=C1N(Cc1ccc(Cl)cc1Cl)C(=O)[C@H](CC(=O)NCc1cccc(C(F)(F)F)c1)C2,1.4
COCCCN1C(=O)C(CC(=O)NCCN2CCOCC2)CC(C(=O)N2CCOCC2)=C1C (configuration not stated),-5.7
C[C@H](CO)N1C[C@H](C)[C@H](CN(C)C(=O)C2CCC2)Oc2cc(-c3ccc(C(=O)N(C)C)cc3)ccc2S1(=O)=O,-8.8
COc1ccccc1-c1ccc2c(c1)[C@@H]1[C@@H](CCN1C(=O)C1CC1)[C@@H](CO)N2,-1.3
COc1ccc([Si](C)(C)[C@H]2[C@H](CCO)O[C@@]3(C(=O)N(Cc4ccccc4)c4ccc(N5CCOC5=O)cc43)[C@@H]2C)cc1,-13
Cc1ccc(S(=O)(=O)NC[C@@H]2CC[C@@H]3[C@@H](CN3Cc3cc(F)ccc3F)O2)cc1,-9.7
O=C(C1CC1)N1CCCCN2[C@@H](CO)[C@@H](c3ccc(C#CC4CC4)cc3)[C@@H]2C1,-0.4
Oc1ccc(C[C@H]2CN([C@@H](Cc3ccc(O)cc3)CN3CCC[C@@H]3CN3C(=S)NC[C@@H]3Cc3ccccc3)C(=S)N2CC2CCCCCC2)cc1,-2.0
Cc1ccc(NC(=O)C2(C)CCN2C(=O)C2CCCCC2)cc1C (configuration not stated),1.9
C[C@H](CO)N1C[C@H](C)[C@H](CN(C)C(=O)Nc2cccc3ccccc23)Oc2c(NC(=O)Nc3ccc(C(F)(F)F)cc3)cccc2C1=O,4.4
CCCNC(=O)C1(C)CCN(C(=O)c2ccc(F)c(Cl)c2)C1 (configuration not stated),-5.1
CC(C)C[C@@H](CN1CCC[C@@H]1CN1C(=S)NC[C@@H]1Cc1ccc(O)cc1)N1C[C@H](Cc2ccc(O)cc2)N(CC2CCCCC2)C1=S,0.1
O=C1O[C@H](c2ccccc2)[C@H](c2ccccc2)N2[C@H]1[C@@H](C(=O)N1CCCCCCC1)[C@]1(C(=O)Nc3ccc(C#CC4=CCCCC4)cc31)[C@H]2c1ccc(O)cc1,0.3
C#CCN(CC=C(C)C)[C@H](CO)c1ccccc1,-1.5
CCOC(=O)[C@]12CCC=C1N(Cc1ccc(Cl)cc1Cl)C(=O)[C@H](CC(=O)N1CCN(C(=O)c3ccco3)CC1)C2,5.4
CNC(=O)C1=C[C@H](c2ccc(C(=O)OC)cc2)C[C@H](OCCCCO)O1,-3.3
O=C(c1cccc(F)c1)N1CC[C@@H]2[C@@H](CO)Nc3ccc(C#Cc4ccc(F)cc4)cc3[C@@H]21,2.8
COC(=O)C(CC#Cc1ccc2c(c1)[C@]1(C(=O)N2)[C@H](c2ccccc2OCCO)N2[C@H](c3ccccc3)[C@H](c3ccccc3)OC(=O)[C@H]2[C@@H]1C(=O)NC[C@H](O)c1ccccc1)C(=O)OC,0.8
COc1ccc(C#Cc2cnc3c(c2)C(=O)N([C@@H](C)CO)C[C@H](C)[C@@H](CN(C)CC2CCCC2)O3)cc1,8.9
Cc1ccccc1S(=O)(=O)N1CCCCN2[C@@H](CO)[C@@H](c3ccc(-c4ccccc4)cc3)[C@@H]2C1,8.3
CN(Cc1ccccc1)C(=O)c1ccc2nc([C@H]3C[C@H](O)[C@@H](CO)O3)[nH]c2c1,-2.3
CCOC(=O)N1CCN(C(=O)C[C@@H]2C[C@@]3(C(=O)OCC)CCCC=C3N(Cc3ccc(Cl)cc3Cl)C2=O)CC1,2.5
COc1ccccc1NC(=O)N1C[C@@H]2[C@H](c3ccccc31)[C@H](CO)N2C(=O)C1CC1,-1.7
CN(C)C(=O)C[C@H]1CC[C@H](NC(=O)c2ccc(F)cc2)[C@H](CO)O1,-1.2
C[C@@H]1CN([C@H](C)CO)C(=O)Cc2cc(NC(=O)Nc3ccc(C(F)(F)F)cc3)ccc2O[C@H]1CN(C)C(=O)NC1CCCCC1,1.6
CCS(=O)(=O)N[C@H]1CC[C@@H](CC(=O)NCc2ccc(Cl)cc2)O[C@@H]1CO,-1.1
COc1ccc(NC(=O)N2CC(=O)N3[C@@H](CO)[C@@H](c4ccc(/C=C/c5ccccc5)cc4)[C@@H]3C2)cc1,2.7
OCCN1CCN(c2cc(-c3ccc(CO)cc3)nc3ccnn23)CC1,1.4
Cc1ccccc1S(=O)(=O)NCC[C@@H]1CC[C@H](NC(=O)Nc2cccc(Cl)c2)[C@H](CO)O1,0.5
Cc1ccc(-c2ccc([C@@H]3[C@@H](CO)N4CCCCN(S(=O)(=O)c5cccc(C)c5)C[C@H]34)cc2)cc1,-0.1
COc1cccc(CNc2nc(NCc3ccccc3OC)nc3ccsc23)c1,3.8

# Five structures out of the list, arranged by count of non-hydrogen atoms, highest first:
molecule,AF4-AF9 inh
O=C1O[C@H](c2ccccc2)[C@H](c2ccccc2)N2[C@H]1[C@@H](C(=O)N1CCCCCCC1)[C@]1(C(=O)Nc3ccc(C#CC4=CCCCC4)cc31)[C@H]2c1ccc(O)cc1,0.3
Cc1ccccc1S(=O)(=O)NCC[C@@H]1CC[C@H](NC(=O)Nc2cccc(Cl)c2)[C@H](CO)O1,0.5
CN(Cc1ccccc1)C(=O)c1ccc2nc([C@H]3C[C@H](O)[C@@H](CO)O3)[nH]c2c1,-2.3
Cc1ccc(NC(=O)C2(C)CCN2C(=O)C2CCCCC2)cc1C (configuration not stated),1.9
CCCNC(=O)C1(C)CCN(C(=O)c2ccc(F)c(Cl)c2)C1 (configuration not stated),-5.1

# This is a subset. The share of hits here may be higher or lower than overall.
